NPYLR7 ag – agonists of mosquito NPYLR7 receptor, primary screen, cell-based, Aedes aegypti, calcium fluorescence, mosquito biting behavior. HEK293T NPYLR7/Galpha15, GCaMP6s calcium fluorescence. activation, % at 10 µM. 0.15% of 270,000 active; in the data active = activation above about 40%;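 note: 0% = vehicle and 100% = reference agonist at the receptor; some compounds past the cut are filed as inactive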
NPYLR7 ag max-min – second read-out of NPYLR7 ag, no call of its own (marks repeat the call); activation, %; measured here: Max-Min RFU normalised activation; some inactives read as strong as hits;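 span of the calcium signal over five minutes; 0% = vehicle and 100% = native peptide agonist; compound fluorescence can raise it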
An asterisk follows results filed as active; & = joins results of further samples.

nr	SMILES	NPYLR7 ag max-min	NPYLR7 ag
1	CCn1c(C2CCN(C(=O)C3(C)CCCO3)CC2)n[nH]c1=O (centres undefined)	4	8
2	CCn1nc(C)c(Cn2ccnc2-c2ccc(-c3ccn[nH]3)o2)c1C	4	6
3	OCC1(Cc2cccc(F)c2)CCN(Cc2nc(-c3ccccc3)cs2)CC1	0	1
4	Cc1cc2c3c(cccc3n1)C(=O)c1ccccc1-2	1	4
5	O=C(NCc1ccc(Cl)s1)c1cc(COc2cccc(C(F)(F)F)c2)on1	3&0	3&16
6	Cc1cc(C)n(CC(C)NC(=O)Cn2nnnc2CN2CCCC2)n1 (centres undefined)	1&8	3&11
7	CCc1nc2ccc(C(=O)Nc3cccc(OCC(=O)N(C)C)c3)cn2c1N(C)Cc1cc2ccccc2s1	5	-4
8	Cc1cccc(CSc2nnc3ccc(-c4ccncc4)nn23)c1	-4	-12
9	NC(=O)c1c(NC(=O)CN2CCCCCC2)sc2c1CCCC2	-2	-1
10	CNc1nc(-c2ccc(CCNC(C)=O)c(F)c2)cs1	-2	-1

One compound at a time (already shown). Values in the order: NPYLR7 ag max-min	NPYLR7 ag
O=C(NCc1ccc(Cl)s1)c1cc(COc2cccc(C(F)(F)F)c2)on1 as listed: 3&0	3&16
CCc1nc2ccc(C(=O)Nc3cccc(OCC(=O)N(C)C)c3)cn2c1N(C)Cc1cc2ccccc2s1 as listed: 5	-4
CCn1c(C2CCN(C(=O)C3(C)CCCO3)CC2)n[nH]c1=O (centres undefined) as listed: 4	8
OCC1(Cc2cccc(F)c2)CCN(Cc2nc(-c3ccccc3)cs2)CC1 as listed: 0	1
Cc1cc2c3c(cccc3n1)C(=O)c1ccccc1-2 as listed: 1	4

Following part:
nr	SMILES	NPYLR7 ag max-min	NPYLR7 ag
11	O=C(NCc1cc(-c2ccc3c(c2)OCO3)on1)c1cc2ccccc2oc1=O	3	2
12	COc1ccc(N=CC2=CN(Cc3ccccc3)C=C(C#N)C2)cc1	-2	2
13	CCC(CC)C(=O)NCCn1ncc2c(N3CCCC3)nc(SC(C)C)nc21	-1	0
14	C=CCn1c(SCC(=O)OCc2ccccc2)nc2c1c(=O)n(C)c(=O)n2C	-8	-8
15	Cc1ccc2cc(CCNC(=O)CCC3CCCCC3)c(=O)[nH]c2c1C	-2	1
16	CN(CCOc1ccccc1)C(=O)c1cn(Cc2ccccc2F)nn1	3	3
17	Cc1ccc(Nc2nc(C)c([N+](=O)[O-])c(N3CCOCC3)n2)c(C)c1	-4	1
18	O=S(=O)(NCc1ccc2c(c1)OCO2)c1ccc(F)c(C(F)(F)F)c1	0	0
19	O=C1CC(NC2CCCC2)C(=O)N1c1ccc(Br)cc1 (centres undefined)	-3	2
20	Cc1ccc2[nH]cc(-c3cccc(N)n3)c2c1	2	3

Ordered by count of non-hydrogen atoms (largest number first): part of the list above
nr	SMILES	NPYLR7 ag max-min	NPYLR7 ag
11	O=C(NCc1cc(-c2ccc3c(c2)OCO3)on1)c1cc2ccccc2oc1=O	3	2
15	Cc1ccc2cc(CCNC(=O)CCC3CCCCC3)c(=O)[nH]c2c1C	-2	1
18	O=S(=O)(NCc1ccc2c(c1)OCO2)c1ccc(F)c(C(F)(F)F)c1	0	0

Next section.
nr	SMILES	NPYLR7 ag max-min	NPYLR7 ag
21	CCOc1ccccc1NC(=O)N1CCN(CCCOC(c2ccc(Cl)cc2)c2ccc(Cl)cc2)CC1	-2	-9
22	COc1ccc(-c2noc(Cn3ccn4nc(-c5ccccc5OC)cc4c3=O)n2)cc1	1	1
23	CSC(=S)OCC12CC3CC(CC(C3)C1)C2	-2	1
24	Cc1cccc(C(NC(=O)C(=O)Nc2cc(C)on2)c2cccs2)c1 (centres undefined)	0	6
25	O=C(Nc1c[nH]c2ccccc12)N1CCOCC1	-5	2
26	CN(C(=O)CSc1nnc(-c2ccco2)n1C)C1CCCCC1	10	5
27	CCC(=O)N1CCCN(c2cncc(Cl)n2)CC1	1	2
28	COc1ccc(-c2ccc(=O)n(CCNC(=O)Nc3ccccc3Cl)n2)cc1OC	1	1
29	O=C(CN1CCN(S(=O)(=O)N2CCCCCC2)CC1)Nc1ccc2ccccc2c1	3	11
30	O=C(COc1ccc(F)cc1)Nc1ccc2c(c1)OCCCO2	0	2

Shown with two lines to a compound: part of the list above.
Values run as follows: NPYLR7 ag max-min	NPYLR7 ag
#22 COc1ccc(-c2noc(Cn3ccn4nc(-c5ccccc5OC)cc4c3=O)n2)cc1
→ 1	1
#23 CSC(=S)OCC12CC3CC(CC(C3)C1)C2
→ -2	1
#24 Cc1cccc(C(NC(=O)C(=O)Nc2cc(C)on2)c2cccs2)c1 (centres undefined)
→ 0	6
#25 O=C(Nc1c[nH]c2ccccc12)N1CCOCC1
→ -5	2
#26 CN(C(=O)CSc1nnc(-c2ccco2)n1C)C1CCCCC1
→ 10	5
#27 CCC(=O)N1CCCN(c2cncc(Cl)n2)CC1
→ 1	2

(listing goes on)
nr	SMILES	NPYLR7 ag max-min	NPYLR7 ag
31	O=C(CSc1ccc(-c2cccc([N+](=O)[O-])c2)nn1)N1CCCC1	-1	0
32	COc1ccccc1CC(=O)N1CC(C)Oc2cc(C)ccc21 (centres undefined)	5	5
33	CC1CC1C(=O)Nc1ccccc1N1CCc2ccccc2C1 (centres undefined)	-4	-2
34	CSc1nc(C2CC2)cc(-c2cccs2)c1C#N	-11	-5
35	COCCOCC(=O)N1CCN(C2c3ccccc3CCc3ccccc32)CC1	13	25
36	CCc1nc2ccc(C(=O)Nc3cc(-c4ccccc4)ccc3OC)cn2c1N(C)Cc1ccc(OC)cc1	-7	6
37	C=CCNC(=O)c1cccnc1N1CCc2nc(C)n(C)c(=O)c2CC1	6	6
38	OCCC1CN(Cc2ccc(Cl)cc2)CCN1Cc1ccccc1F (centres undefined)	-9	-5
39	COc1ccc2occ(C(=O)c3ccccc3)c(=O)c2c1	-6	-6
40	O=C(c1sc2cc3c(cc2c1Cl)OCO3)N(c1ccccc1)C1CCCCC1	2	0
41	Cc1ccc(-n2nc(C(C)(C)C)cc2NC(=O)CN(Cc2ccccc2)C(=O)c2ccc(Cl)cc2Cl)c(C)c1	14	8
42	O=C1NC(=Nc2ccccn2)SC1Cc1ccccc1Cl (centres undefined)	-10	-8
43	CC(C)=CCCC(C)CN(C)CCN(C)C (centres undefined)	-19	-11
44	CCSc1nnnn1-c1ccc2c(c1)OCO2	1	8
45	Cc1cc(C(=O)N2CCC3(CC2)CNC(=O)O3)c2ccc(F)cc2n1	3	4
46	COc1cccc(C(=O)Nc2ccc(N3CCC(Cc4ccccc4)CC3)c(C(=O)NCc3ccc(F)cc3)c2)c1	-1	-3
47	O=C(NCc1cccc(C(F)(F)F)c1)C1COC2(CCN(C(=O)Cc3ccccc3)CC2)N1C(=O)c1ccc(F)cc1 (centres undefined)	25	17
48	CC(C)N1C(=O)CC(Nc2cccc3cccc(N)c23)C1=O (centres undefined)	2	-6
49	CC(CNC(=O)c1cc(NC=O)cc2nc(Cc3ccccc3)n(C)c12)Oc1cccnc1 (centres undefined)	9	9
50	Cc1ccc(CN(CC(O)COc2ccccc2C)CC2CCCO2)s1 (centres undefined)	37	27
51	Cc1cc(C)n(Cc2ccc(C(=O)N3C[C@H]4C[C@H](O)[C@@H](O)C[C@H]4C3)cc2)n1	2	4
52	CCn1c(O)c(N=NC(=O)c2ccc(C)nc2)c2ccccc21	11	11
53	CCC(C(=O)NCc1cccc(C(F)(F)F)c1)n1c(=O)n(-c2ccc(OC)cc2)c(=O)c2ccccc21 (centres undefined)	20	3
54	Nc1cccc(-c2ccccc2CO)n1	5	5
55	CN1CC2(CCCN(Cc3nc4ccccc4s3)CC2)OC1=O (centres undefined)	5	10
56	CC(C)c1ccc(NC(=O)COc2cc(=O)n3ccccc3n2)cc1	-3	-7
57	Cc1nn(CC(=O)N2CCN(c3ccc(F)cc3)CC2)c(C)c1[N+](=O)[O-]	-6	0
58	Cc1ccccc1N1CC(O)(c2ccc(C(C)(C)C)cc2)[N+]2=C1SCCC2 (centres undefined)	3	5
59	CCS(=O)(=O)Oc1ccc(Cl)cc1CN(C(=O)Nc1ccccc1OC)C(C)C	14	13
60	CC1ON=C(c2ccccc2F)N(C/C=C/c2ccccc2)C1=O (centres undefined)	4	8
61	COc1ccc(/C=C/C(=O)OCn2c(SC)nnc(C)c2=O)cc1OC	-4	-1
62	O=C(Nn1cnc2c(cnn2-c2ccccc2)c1=O)c1ccc(Cl)c([N+](=O)[O-])c1	-3	2
63	O=C(c1ccc2c(c1)OCO2)N1CCN(C(C(=O)N2CCc3ccccc3C2)C2CCCC2)CC1 (centres undefined)	-4	-5
64	Cc1csc(/C(C#N)=C/c2cc(C)n(C3CC3)c2C)n1	0	8
65	O=C(c1cc2sccc2[nH]1)N1CCn2cncc2C1	-4	0
66	CC(=O)Nc1c(-c2cc(=O)oc3cc(C)ccc23)oc2ccccc12	-5	-2
67	CCc1nc2c(OCC(N)=O)cccn2c1N(C)C(=O)c1ccc(OC)cc1	-2	6
68	COc1cc(Br)c(CC(=O)NC(c2ccccc2)c2nccn2C)cc1OC (centres undefined)	0	3
69	COCCN(CC(=O)N(Cc1ccc(F)cc1)Cc1sccc1C)C(=O)Nc1ccccc1C(F)(F)F	14	10
70	O=C(CC1C=CCC1)NS(=O)(=O)c1cccc(F)c1 (centres undefined)	1	3
71	N#C/C(=C\c1ccc(-c2ccc([N+](=O)[O-])cc2Cl)o1)c1nc2ccccc2c(=O)[nH]1	-5	-4
72	O=C1COc2ccc(NC(=O)C3CC(=O)N(c4cccc(Cl)c4)C3)cc2N1 (centres undefined)	2	4
73	Cc1cc(C(=O)Nc2ccc(-c3nc4cc(C(C)(C)C)ccc4o3)cc2)ccc1[N+](=O)[O-]	-11	-3
74	O=C1CCCCCN1CCCNCc1cnc(-c2cccnc2)s1	-10	-1
75	CC1(C)CC(=O)C2C(=Nc3ccccc3NC2c2ccc(Cl)c([N+](=O)[O-])c2)C1 (centres undefined)	1	2
76	COc1cc(OC)cc(C(=O)NC(C)c2nnc(SCc3cccc(C)c3)n2-c2ccc(C)cc2)c1 (centres undefined)	19	17
77	C=CCN(CC(=O)N1CCc2sccc2C1c1ccc(Cl)cc1Cl)S(=O)(=O)/C=C/c1ccccc1 (centres undefined)	10	17
78	CCCSc1ncc(C2CC(=O)Nc3n[nH]c(CCC)c32)cn1 (centres undefined)	-2	2
79	O=S(=O)(NCCC1CCCO1)c1ccc2c(c1)CCC2 (centres undefined)	0	0
80	CN(C)C(=O)c1ccc2c(c1)N(C)C(CC(=O)Nc1cccc3[nH]ncc13)CO2 (centres undefined)	1	3

Next section.
nr	SMILES	NPYLR7 ag max-min	NPYLR7 ag
81	O=C(NCCN1CCNC1=O)c1ccc2nc(Cc3cccc(Cl)c3)oc2c1	3	7
82	COC(=O)c1ccc(COC(=O)c2cccc(C#N)c2)o1	-3	0
83	O=C(Cn1cnc([N+](=O)[O-])n1)N/N=C\c1cc(Cl)cc(Br)c1O	-12	-7
84	O=c1c2cnc3ncnn3c2ccn1Cc1ccccc1	7	2
85	CN1CCN(S(=O)(=O)c2cc(Br)cnc2N)CC1	1	3
86	C=CCN(CC(=O)N(Cc1cccn1C)CC(C)C)C(=O)c1ccc(CCCC)cc1	-8	-1
87	CC(C)(C)c1cc(Oc2ccc([N+](=O)[O-])cc2)nc(SCc2ccccc2Cl)n1	8	1
88	Cc1[nH]c2ccccc2c1C=NNc1nc2ccccc2[nH]1	-7	-6
89	CCCCCCn1c(=O)[nH]c2c(c1=O)CCC2	4	-1
90	O=C(CS(=O)(=O)Cc1cccc(Br)c1)Nc1cn[nH]c1	3	5
91	COCCN(Cc1nccn1Cc1ccccc1)C(=O)Nc1ccc(C(F)(F)F)cc1	18	16
92	CN1CC(n2cnc(-c3ccccc3)c2-c2ccccc2C(=O)O)CCC1=O (centres undefined)	-5	-6
93	CCc1nc(SCC(=O)N2CCn3cccc3C2CC)n[nH]1 (centres undefined)	2	11
94	CSc1ccc(CC2(CCC(=O)N[C@@H]3CCCC[C@H]3c3ccccc3)CCC(=O)N2)cc1 (some centres undefined)	-10	-1
95	O=C(c1ccc(Br)cc1)N1CCCC(OCc2cccc(C(F)(F)F)c2)C1 (centres undefined)	2	-2
96	COc1ccc(C2=NOC(CN(Cc3ccccc3Cl)C(=O)NC(C)C)C2)cc1 (centres undefined)	15	5
97	COc1ccc2c(c1)CC(NC1CCN(S(C)(=O)=O)CC1)CC2 (centres undefined)	6	7
98	CCc1nccn1CCC(=O)Nc1ccc(NC(=O)c2coc(C)c2)cc1	-4	-4
99	C=C(Br)CN(C)C(C)(C)CO	-7	-4
100	CC(C)(C)c1nnc(SCc2ccccc2)n(N)c1=O	-3	-6
101	CN(Cc1c(Cl)nc2sccn12)C(=O)Nc1ccccc1N1CCCC1	-5	-2
102	CCc1ccc(Cl)c(CC)c1NC(=O)C1CCOCC1	-3	-1
103	C=CCn1c(SCC(=O)Nc2ccc(F)cc2)nc2scc(-c3ccco3)c2c1=O	-4	-2
104	Cc1cccn2c(CC(=O)N3CCCC3Cn3cccn3)cnc12 (centres undefined)	-6	-1
105	CC(C)N(CCNC(=O)Cc1cccc(NC2OC(C3COC(C)(C)O3)[C@@H]3OC(C)(C)O[C@H]23)c1)C(C)C (some centres undefined)	-10	-9
106	CCOC(=O)C1=C(C)OC(=N)C(C#N)C1c1ccco1 (centres undefined)	-3&-3	-1&2
107	CCc1ccc(C(C)(C)C(=O)O)cc1	0	2
108	CC1(C(=O)NCc2ccccc2Br)CCN1CCc1ccccc1 (centres undefined)	1	8

Screening results deposited in PubChem by Fisher Drug Discovery Resource Center.

Not all compounds are listed; the hit share may differ from the screen's.
